Source: PubChem BioAssay (National Center for Advancing Translational Sciences (NCATS))
TSHR agonist = agonists of human thyroid stimulating hormone receptor. 0.48% of 73,000 active. P16473. HEK293-CNG-TSHR cells (CNG channel as cAMP sensor), membrane potential dye, cAMP. Potency, µM (doses to about 57.1 µM), for the others: at the top dose activation, hits mostly activators; active = well fitted activation curve of enough size with the parental cells flat; inconclusive = any curve in the parental cells; inactive = parental cells flat and receptor cells flat or falling; also: potency is read from the fitted curve at half-maximal effect; % of control where 0% means no effect; weak receptor curves with flat parental cells got no call and are not listed
Target sequence (P16473 whole entry, looked up): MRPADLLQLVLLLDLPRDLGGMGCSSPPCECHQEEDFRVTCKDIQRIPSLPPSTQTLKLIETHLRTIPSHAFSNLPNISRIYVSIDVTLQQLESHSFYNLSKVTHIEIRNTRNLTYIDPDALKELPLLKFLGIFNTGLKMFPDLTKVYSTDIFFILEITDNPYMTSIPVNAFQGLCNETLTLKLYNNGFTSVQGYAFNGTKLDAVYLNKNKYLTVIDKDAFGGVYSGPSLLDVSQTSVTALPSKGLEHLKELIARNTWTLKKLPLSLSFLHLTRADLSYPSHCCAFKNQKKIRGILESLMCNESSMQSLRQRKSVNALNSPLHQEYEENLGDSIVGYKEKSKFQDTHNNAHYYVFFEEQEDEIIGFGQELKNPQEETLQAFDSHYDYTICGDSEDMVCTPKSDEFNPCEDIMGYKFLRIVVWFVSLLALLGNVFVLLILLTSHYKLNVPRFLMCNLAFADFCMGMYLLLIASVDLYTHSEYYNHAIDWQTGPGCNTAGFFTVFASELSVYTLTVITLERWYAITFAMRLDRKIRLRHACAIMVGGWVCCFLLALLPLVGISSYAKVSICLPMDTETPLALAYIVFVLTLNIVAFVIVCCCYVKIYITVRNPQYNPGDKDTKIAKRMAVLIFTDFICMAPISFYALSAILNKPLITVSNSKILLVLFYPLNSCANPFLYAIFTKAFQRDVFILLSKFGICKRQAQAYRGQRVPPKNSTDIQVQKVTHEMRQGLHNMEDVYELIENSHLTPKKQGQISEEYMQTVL
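HEK 293 cells stably expressing TSHR and a cAMP-gated CNG channel; parental CNG-only cells as counterscreen. Cells preloaded 60 min with membrane potential dye plus 100 uM RO 20-1724, then compound 30 min; fluorescence read at 590 nm.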
A647 fluor = A647 region autofluorescence | Compound fluorescence, A647 channel (570/671 nm), Tris buffer | max dye-equivalent concentration, M | 59,000 tested, under 10 active | AID 592; active means above 1 µM dye equivalent; inconclusive means 0.1 to 1 µM; inactive means 0.1 µM or less;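 also: values scaled relative to a standard on each plate; highest value over a series up to 38 µM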
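Compound fluorescence was measured in 100 mM Tris buffer, pH 8.0, after 15 min at room temperature, using 570 nm excitation and 671 nm emission filters. Signal was normalized to a per-plate Alexa 647 standard curve and expressed as dye-equivalent concentration at each compound concentration.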
AID923 = qHTS Assay for Allosteric/Competitive Inhibitors of Caspase-1: Spectroscopic Profiling in AFC Spectral Region; compound fluorescence, AFC spectral region (405/520 nm); almost no hit is shown here; 1.1% of 75,000 active; Potency, µM (top dose mostly 57.5 µM), inactives show top-dose fluorescence increase, actives largely listed as activators; AID 923, 2007; active = well fitted activation curve with a large enough effect; inconclusive = small, poorly fitted or top-dose-only effect;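 also: potency is read from the fitted curve at half-maximal effect; 0% is about no effect; scaled to a free AFC standard on each plate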
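Baseline compound fluorescence (AFC region, 405 nm ex/520 nm em) taken from the intercept of kinetic reads with 50 nM caspase-1 and 5 uM Ac-WEHD-AFC; normalized to an on-plate AFC standard curve; compounds titrated up to 57 uM.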
Resorufin fluor = compound fluoresces in the resorufin spectral region; Compound fluorescence, resorufin region 547/598 nm, buffer; stronger effect = higher value; max dye-equivalent concentration, M; 0.04% of 59,000 active; AID 588; active = above 10 nM dye equivalent; inconclusive = 1 to 10 nM; inactive = 1 nM or less; a few of its hits are not listed in these tables; also: highest value over a series up to 38 µM
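Compounds in 100 mM Tris, pH 8.0, incubated 15 min at room temperature, then fluorescence read at 547 nm excitation/598 nm emission. Signal converted to dye-equivalent concentration via an on-plate six-point resorufin standard curve, per compound concentration.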
A488 autofl = A488 region autofluorescence | compound autofluorescence, A488 spectral region, dye equivalency; stronger effect = higher value | max dye equivalency, M | 0.1% of 59,000 active | AID 591; active = above 10 nM dye equivalent; inconclusive = 1 to 10 nM; inactive = 1 nM or less; about half of its hits are not listed in these tables;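 also: highest value over a series up to 38 µM; compound alone in buffer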
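Read-out: relative fluorescence at 480/540 nm, expressed as Alexa 488 dye-equivalent concentration from a six-point A488 standard included per plate. Conditions: 100 mM Tris, pH 8.0; 15 min incubation, room temperature.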
The depositor's hits bear a star; i = inactive; ? = inconclusive; . = no result given; [ ] = dose if it differs, or a comment. The list is partial; the hit share may differ from the screen's.

SMILES | TSHR agonist | A647 fluor | AID923 | Resorufin fluor | A488 autofl
Cc1cccnc1NC(=O)Nc1cccc(C(F)(F)F)c1 | 25% | 1e-09 | -0.4% | i | i
O=C(COc1ccc(Cl)cc1)Nc1ccccc1N1CCOCC1 | ? | 1e-08 | 0.9% | i | i
COc1ccc(N2C(=O)C3CCCN3C2c2ccccc2F)cc1 (centres undefined) | ? | . | 2.3% | . | .
c1cc2c(cc1-c1cnc3n1CCC3)OCCO2 | ? | 2.5e-08 | -0.4% | i | i
O=C(Cc1ccc(F)cc1)N(c1ccc(F)cc1)C1C=CS(=O)(=O)C1 (centres undefined) | 4% | 5.5e-09 | -0.4% | i | i
Cc1ccc(C)c(C(=O)c2c(C)nc3sccn23)c1 | 30% | 8e-09 | -1.1% | i | i
Cc1ccc2nsnc2c1S(=O)(=O)N(Cc1cc2cccc(C)c2[nH]c1=O)CC1CCCO1 (centres undefined) | 20% | 5.4e-09 | 2.2% | i | i
Cn1nnc(NC(=O)CSc2ncn[nH]2)n1 | 1% | 1e-09 | 1.2% | i | i
Cc1ccc2nc(SCC(=O)NCC3CCCO3)c(C#N)cc2c1 (centres undefined) | -1% | 1e-09 | 3.6% | i | i
COC(=O)c1cc(OC)c(OC)cc1NC(=O)CN1CCCCC1 | -1% | 3.2e-08 | 1.5% | i | i
COc1ccc(Cl)cc1NC(=O)CSc1nncn1-c1cccnc1 | -1% | 1.3e-08 | 1.5% | i | i
Cc1nnc(N2CCc3ccccc3C2)[nH]c1=O | 5% | 7e-09 | -0.8% | i | i
O=C(c1ccco1)N1CCN(S(=O)(=O)c2cccc(C(F)(F)F)c2)CC1 | -2% | 1e-09 | 1.4% | i | i
NNC(=O)[C@@H](O)[C@H](O)[C@H](O)CO | 5%[11.4 µM] | 3.2e-08 | 2.3%[11.5 µM] | i | i
N#CCSc1nc2sc3c(c2c(=O)n1C1CCCCC1)CCCC3 | . | 7.6e-08 | . | i | i
CN(C)S(=O)(=O)c1cc(C(=O)NCCCn2ccc3ccccc32)ccc1Cl | ? | 1e-09 | 1.8% | i | i
CCC(C)n1[nH]c(=O)cc1N (centres undefined) | -6% | 1e-09 | 0.8% | i | i
CCCCCCCCN | ? | . | 5.2% | . | .
CCOC(=O)N1CCN(C(=O)c2ccc(CS(=O)(=O)c3ccc(OC)cc3)o2)CC1 | 0% | . | -0.1% | . | .
CC(=O)NCCNc1nc(-c2ccc(N(C)C)cc2)nc2ccccc12 | ? | 1e-09 | 1.6% | i | i
O=C1C(c2[nH]c3ccccc3c2O)=Nc2ccccc21 | 4% | . | -1.9% | . | .
Cc1c(N=C/C=C2\N(C)c3ccccc3C2(C)C)c(=O)n(-c2ccccc2)n1C | 7% | 2.4e-08 | 4.2% | i | i
O=C(C1CSC2(c3ccc(F)cc3)CCC(=O)N12)N1CCCCCC1 (centres undefined) | 7% | 1.5e-09 | -2.8% | i | i
COCCNC(=O)C1CCN(S(=O)(=O)c2ccccc2)CC1 | 29% | . | 3.5% | . | .
CCOC(=O)c1cc(-c2ccccc2)sc1NC(=O)C(C)Sc1nnnn1C (centres undefined) | 8% | 2e-09 | -0.3% | i | i
SMILES | TSHR agonist | A647 fluor | AID923 | Resorufin fluor | A488 autofl
CCN(C(=O)CSc1ncn[nH]1)c1cccc2ccccc12 | . | 1e-09 | 0.1% | i | i
N#CC1=C(SCc2ccccc2)NC(=O)C(C#N)C12CCCC2 (centres undefined) | ? | 1e-09 | -0.1% | i | i
CC1=CCC(C(C)(C)NC(=O)c2ccccc2)C/C1=N\O (centres undefined) | 32%[11.4 µM] | . | 0.0% | . | .
Cc1ccc(NC(=O)N2CCC(C(=O)NCC(C)C)CC2)cc1 | -2% | 1.2e-09 | 0.5% | i | i
O=S(=O)(NCCNS(=O)(=O)c1ccccc1)c1ccccc1 | 4% | . | -5.1% | . | .
CCOC(=O)c1c(C)c(C(=O)NCCc2ccc(S(N)(=O)=O)cc2)c(C)n1CC | 10%[11.4 µM] | 9.7e-09 | -1.0% | i | i
CCN(CC)CCNC(=O)CCCCn1c(=S)[nH]c2c([nH]c3ccc(OC)cc32)c1=O | 11% | 3.6e-08 | -0.9% | i | i
CCS(=O)(=O)N1CCC(C(=O)NCc2cccs2)CC1 | -8%[11.4 µM] | 3.3e-08 | -0.1% | i | i
CCCn1c(C)cc(C(=O)CN2C(=O)c3ccccc3C2=O)c1C | -1%[11.4 µM] | 1e-09 | -0.4% | i | i
Cc1c(NS(=O)(=O)N2CCCC2)c(=O)n(-c2ccccc2)n1C | 0%[11.4 µM] | 3e-08 | 0.3% | i | i
Cc1ccc(Cn2ccc(NC(=O)c3cc(-c4ccc5c(c4)OCO5)on3)n2)cc1 | ? | 5.7e-09 | -1.7% | i | i
CC1=C(C(=O)OCC(C)C)C(c2ccc(F)cc2)NC(=O)N1 (centres undefined) | -4% | . | -0.1% | . | .
COC(=O)c1ccc(C(NC(=O)OCc2ccccc2)/C(=C/[C@@H](C)C(=O)Nc2ccccc2)c2cccnc2)cc1 (some centres undefined) | 23% | . | 1.5% | . | .
Cc1cc(OCC(=O)N2CCOCC2)cc2oc(=O)c3ccccc3c12 | -1% | 1.5e-09 | 2.2% | i | i
O=C(c1cnccn1)N1CCC2(CC1)CCN(c1cccc(-c3ccccc3)c1)CC2 | 28% | 1.9e-09 | 0.3% | i | i
C#CCn1c(=NC(=O)CSCC(=O)N2CCOCC2)sc2ccccc21 | 2% | 3.4e-08 | -0.1% | i | i
CO[C@H]1[C@H](O[C@H]2O[C@@H](C)[C@@H](O[C@@H]3C[C@](C)(O)[C@H](OC(=O)CC(C)C)[C@H](C)O3)[C@@H](N(C)C)[C@@H]2O)[C@@H](CC=O)C[C@@H](C)[C@@H](O)/C=C\C=C/C[C@@H](C)OC(=O)C[C@H]1OC(C)=O | -2%[25.6 µM] | 6e-09 | -2.9%[25.7 µM] | i | i
CCOC(=O)C1=C(C)NC2=C(C(=O)CCC2)C1c1cc(OC)ccc1OC (centres undefined) | 6% | . | 9.8% | . | .
CCNC(=O)CN(c1ccc(CC)cc1)S(C)(=O)=O | 0% | . | 3.1% | . | .
Cc1ccc(S(=O)(=O)Cn2nnnc2C(CC(C)C)N2CCN(C(=O)c3ccco3)CC2)cc1 (centres undefined) | 7% | 3.2e-08 | -3.4% | i | i
Cc1nc(NC(=O)c2ccco2)sc1C(=O)Nc1ccc(Br)cc1 | ? | 1.4e-08 | 0.0% | i | i
COc1ccc(C(=O)N2CCC3(CCN(Cc4ccc(C#N)cc4)CC3)CC2)cc1 | ? | 1e-09 | -1.1% | i | i
CCOC(=O)N1CCN(c2ncnc3c2[nH]c2ccc(OC)cc23)CC1 | . | 4.4e-08 | . | i | i
CCOC(=O)c1ccc(NC(=O)c2ccc(NS(C)(=O)=O)cc2)cc1 | 8% | 1e-09 | -1.4% | i | i
CC1CCCCC1NC(=O)CSc1nnc(-c2ccccc2)n1N (centres undefined) | ? | 1e-09 | 1.5% | i | i

Individual results from the results shown:
COC(=O)c1ccc(C(NC(=O)OCc2ccccc2)/C(=C/[C@@H](C)C(=O)Nc2ccccc2)c2cccnc2)cc1 (some centres undefined) @ AID923 = 1.5%
Cc1ccc(NC(=O)N2CCC(C(=O)NCC(C)C)CC2)cc1 @ AID923 = 0.5%
Cc1cc(OCC(=O)N2CCOCC2)cc2oc(=O)c3ccccc3c12 @ A647 fluor = 1.5e-09
C#CCn1c(=NC(=O)CSCC(=O)N2CCOCC2)sc2ccccc21 @ TSHR agonist = 2%
CCOC(=O)N1CCN(c2ncnc3c2[nH]c2ccc(OC)cc23)CC1 @ A647 fluor = 4.4e-08
COc1ccc(C(=O)N2CCC3(CCN(Cc4ccc(C#N)cc4)CC3)CC2)cc1 @ A647 fluor = 1e-09

Some entries already given with just TSHR agonist:
| structure | TSHR agonist |
| --- | --- |
| CCN(CC)CCNC(=O)CCCCn1c(=S)[nH]c2c([nH]c3ccc(OC)cc32)c1=O | 11% |
| CCS(=O)(=O)N1CCC(C(=O)NCc2cccs2)CC1 | -8%[11.4 µM] |

Going on with the list:
SMILES | TSHR agonist | A647 fluor | AID923 | Resorufin fluor | A488 autofl
CC(C)c1nnc(NC(=O)c2cccs2)s1 | -3% | . | -2.0% | . | .
Cc1ccc(OCC(=O)Nc2cccc(-c3nnc(-c4ccccc4)o3)c2)cc1 | ? | 5.1e-09 | 1.2% | i | i
Cc1noc(C)c1COC(=O)C1COc2ccccc2O1 (centres undefined) | 1% | 1e-09 | 1.2% | i | i
OC(c1ccccc1)C1CN(Cc2ccccc2)CCC1(O)c1ccccc1 (centres undefined) | ? | 1e-09 | 1.0% | i | i
O=C1C2C3C=CC(C3)C2C(=O)N1c1ncn[nH]1 (centres undefined) | -1% | 9.4e-09 | -0.1% | i | i
O=C(COc1ccc(Cl)cc1Cl)N1CCCCCC1 | ? | . | -0.7% | . | .
O=C1C2C3c4ccccc4C(c4ccccc43)C2C(=O)N1CN1CCOCC1 (centres undefined) | 2% | 5.9e-09 | -0.1% | i | i
N#Cc1cc2c(nc1SCc1cccnc1)CCCCC2 | ? | 7.9e-09 | 0.9% | i | i
Cc1ccc(CCNC(=O)CN2C(=O)COc3ccccc32)cc1 | 2% | 2.1e-08 | -0.9% | i | i
CC(=O)NS(=O)(=O)c1ccc(NC(=O)CCC2CCCC2)cc1 | 2% | 1.9e-09 | 1.2% | i | i
Cc1cc(C(=O)CSc2nc3ccccc3c(=O)n2C)c(C)n1Cc1ccc2c(c1)OCO2 | ? | 1e-09 | 0.1% | i | i
CCCCNC(=O)Cn1cnc2sc(C(=O)OCC)c(C)c2c1=O | -2%[11.4 µM] | 1.8e-08 | -0.9% | i | i
O=C(Nc1ccc(N2CCOCC2)cc1)c1ccc(S(=O)(=O)N2CCCCC2)cc1 | -3% | . | 3.0% | . | .
CCc1noc(C)c1C(=O)NCCc1ccc(OC)c(OC)c1 | -1% | . | 4.5% | . | .
Clc1ccc(/C=C\c2nc(Cl)c(-c3ccc(Cl)cc3)c(Cl)n2)cc1 | 2%[11.4 µM] | 3.3e-08 | 0.9%[11.5 µM] | i | i
Cc1ccc(NCc2nc3ccccc3n2C)cc1 | -12% | 2.4e-08 | 1.1% | i | i
CCC(C(=O)NC1CCCC1)N(C(=O)Cn1nnc(-c2ccc(C)o2)n1)c1cnc2ccccc2c1 (centres undefined) | -1% | 4.4e-09 | 2.2% | i | i
COC(=O)c1ccc(NS(=O)(=O)N(C)C)cc1 | 9% | 1e-09 | -1.7% | i | i
CCCC[C@@H]1C[C@H]1C(NC(=O)c1cccs1)c1ccccc1C(F)(F)F (some centres undefined) | ? | . | 0.4% | . | .
Clc1ccc2nc(SCc3nnc(-c4ccccc4)o3)[nH]c2c1 | -2% | 1.2e-08 | -1.2% | i | i
COc1ccccc1-c1nnc(N(C)C(=O)C2CCCO2)s1 (centres undefined) | 2% | 2.4e-08 | -2.0% | i | i
CCCOC(=O)C1=C(C)NC2=C(C(=O)CCC2)C1c1cc(OC)ccc1OC (centres undefined) | 0% | 6.1e-09 | 7.2% | i | i
COc1ccc2nc3c(c([Si](C)(C)C(C)(C)C)c2c1)Cn1c-3cccc1=O | ? | . | -2.3% | . | .
CC12CN3CC(C)(CN(C1)C3c1cc3ccccc3[nH]1)C2=O (centres undefined) | -13% | 3.2e-08 | -2.0% | i | i

Random excerpt: four compounds from above.
SMILES | TSHR agonist | A647 fluor | AID923 | Resorufin fluor | A488 autofl
COc1ccc(C(=O)N2CCC3(CCN(Cc4ccc(C#N)cc4)CC3)CC2)cc1 | ? | 1e-09 | -1.1% | i | i
COC(=O)c1ccc(C(NC(=O)OCc2ccccc2)/C(=C/[C@@H](C)C(=O)Nc2ccccc2)c2cccnc2)cc1 (some centres undefined) | 23% | . | 1.5% | . | .
Cc1ccc(NCc2nc3ccccc3n2C)cc1 | -12% | 2.4e-08 | 1.1% | i | i
Cc1ccc(CCNC(=O)CN2C(=O)COc3ccccc32)cc1 | 2% | 2.1e-08 | -0.9% | i | i
